Mtb betalactam = beta-lactam sensitization of Mtb H37Rv. M. tuberculosis H37Rv growth with meropenem, percent inhibition; hits of this screen are not shown here. actives 0.27% (n = 330,000). AID 434955. inhibition, % at 25 µM;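 active = about 74% or more and at least 40 points above the plate without the antibiotic, then above 30% in a dose series; inconclusive = first-round hits that could not be retested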;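 also: growth measured after seven days incubation then overnight dye step; 0% = bacteria only wells and 100% = bacteria with antibiotic; twin plates without the antibiotic show which effects depend on it; some results filed as inactive read as strong as hits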
Numbers without * were called inactive; ? = inconclusive.

SMILES | Mtb betalactam
C[C@@H]1CN([C@@H](C)CO)C(=O)c2cc(NC(=O)C3CC3)ccc2O[C@@H]1CN(C)C(=O)NC1CCCCC1 | 0
C[C@H](CO)N1C[C@H](C)[C@@H](CN(C)Cc2ccc3c(c2)OCO3)Oc2c(NC(=O)Cc3ccccc3)cccc2C1=O | 8
CC(=O)Oc1ccc2nc(-c3ccco3)oc(=O)c2c1 | -6
CC(C)(C)c1ccc(NC(=O)C2=CN3CCS(=O)(=O)N=C3C=C2)cc1 | 37
CC(C)CNC(=S)N(CCCO)Cc1cc2cc3c(cc2[nH]c1=O)OCO3 | -8
COc1cccc(NC(=O)CCc2ccccc2)c1 | 2
Cc1ccc(C(=O)OCC(=O)N2CCCCCC2)c(O)c1 | 95
C[C@H](NC(=O)c1ccco1)C(=O)OCC(=O)N1CC(=O)Nc2ccccc21 | -3
CC(C)N(C(=O)[C@H]1CC(CC(=O)NCc2ccco2)C(=O)N2CCc3c([nH]c4ccccc34)[C@]12C)C(C)C (stereo not given in full) | -4
Cc1cccc2cccnc12 | -7
COc1cccc(C(=O)NCC(=O)OC(C)C(=O)NC23CC4CC(CC(C4)C2)C3)c1 (stereo not given) | -2
CC(C)(C)c1ccc(C(=O)NC(=O)COC(=O)CCS(=O)(=O)c2ccccc2)cc1 | 9
CC(C)N(C(=O)CSc1nnc(NC2CC2)s1)c1ccccc1 | 1
COc1ccc(C(=O)O/N=C(\N)c2ccccn2)cc1[N+](=O)[O-] | 6
CC1(C)CC2CC(C)(CN2S(=O)(=O)c2cccc(C(N)=O)c2)C1 (stereo not given) | 2
O=C(NCC1COc2ccccc2O1)c1ccc(Cl)c(S(=O)(=O)N2CCCC2)c1 (stereo not given) | -1
Cc1ccc(NC(=O)CN2CCCC2)cc1 | -1
CC(C)[C@H](NC(=O)c1ccccc1F)C(=O)OCC(=O)Nc1sccc1C(N)=O | -6
O=[N+]([O-])c1ccc(CN2CCN(c3ncccn3)CC2)cc1 | 2
O=C(c1ccncc1)N1CCN(S(=O)(=O)c2ccccc2Br)CC1 | 1
COc1ccc(OC)c(CC(=O)Nc2cc(S(=O)(=O)N3CCCCC3)ccc2C)c1 | -6
CCSc1nc2cc(S(=O)(=O)N3CCOCC3)ccc2o1 | 73
CC1CCC2(CC1)NC(=O)N(CC(=O)NCCc1c[nH]c3ccccc13)C2=O (stereo not given) | 5
NS(=O)(=O)c1ccc(CCNC(=O)CN2C(=O)NC(c3ccccc3)(c3ccccc3)C2=O)cc1 | -3
NC(=O)c1ccc[n+]([C@H]2O[C@@H](COP(=O)([O-])OP(=O)(O)OC[C@H]3O[C@@H](n4cnc5c(N)ncnc54)[C@H](O)[C@@H]3O)[C@H](O)[C@@H]2O)c1 | -5
CC1(C)C(C(=O)N2CCN(C(=O)c3ccccc3)CC2)C1(C)C | 0
CC(OC(=O)c1ccc2c(c1)NC(=O)CS2)C(=O)c1ccc(F)cc1 (stereo not given) | -3
CC(C)(O)C#Cc1ccc(CN2CCCC(CNC(=O)c3ccco3)C2)cc1 (stereo not given) | ?
CCC1(c2ccc(F)cc2)NC(=O)N(CC(=O)N2CCN(C(=O)c3ccco3)CC2)C1=O (stereo not given) | -13
CCOC(=O)N1CCN(C(=O)c2c(-c3c(Cl)cccc3Cl)noc2C)CC1 | -5
Nc1nc(COC(=O)C2CC(=O)N(CCc3ccccc3)C2)nc(Nc2ccccc2)n1 (stereo not given) | 4
CC1CCN(C(=O)c2[nH]cnc2C(=O)Nc2ccccc2)CC1 | 53
O=C(OCC(=O)N1CCN(c2ccccc2)CC1)c1nc(Cl)ccc1Cl | -2
Cc1nnc(SCC(=O)N2CCN(C(=O)c3ccco3)CC2)n1C | -8
COc1ccc(CCNC(=O)COC(=O)c2cc(Cl)nc(Cl)c2)cc1 | 4
COCCN(C(=O)CCCc1nc2ccccc2s1)c1c(N)n(CC(C)C)c(=O)[nH]c1=O | 1
COc1cc(CN2CCN(C(c3ccccc3)c3ccccc3)CC2)cc(OC)c1OC | 10
CCOC(=O)c1sc(NC(=O)c2ccc(=O)[nH]c2)nc1C | -2
CCc1ccccc1NC(=O)CN(C)Cc1c(O)ccc2ccccc12 | -28
CCN(C(=O)COC(=O)c1cn(C)c2ccccc12)c1ccc(F)cc1 | 4
NC(=O)N(N)c1nc(N2CCCC2)nc(N2CCCC2)n1 | -3
CCN1CCN(CCCNC(=O)c2ccc3c(=O)n(CCc4ccccc4)c(=O)[nH]c3c2)CC1 | 2
CCC(C)[C@@H](CN)NCC1(c2ccccc2)CC1 (stereo not given in full) | -4
CCCn1c(SCC(=O)Nc2ccc(F)c(Cl)c2)nc(O)cc1=O | 6
COc1cccc(N2CCN(C(=O)c3cc(C)oc3C)CC2)c1 | 3
CCc1sc(C(=O)N2CCN(CC(=O)Nc3cccc(F)c3)CC2)cc1C | -6
CCOc1ccccc1OCCCC(=O)Nc1cccc(-n2cnnn2)c1C | 2
Cc1ccc(-c2nc(COC(=O)C3=NN(c4ccccc4)C(=O)CC3)cs2)cc1 | 69
Cc1ccc(S(=O)(=O)N2CCN(S(=O)(=O)c3c(C)n[nH]c3C)CC2)cc1C | -11
COc1cc(O)cc2c1cc([N+](=O)[O-])c1c(C(=O)O)cc3c(c12)OCO3 | -2
CCN(C(=O)CSc1nnc(C)c(=O)[nH]1)c1cccc2ccccc12 | -8
COc1ccc(NC(=O)CSCC(=O)N2CCN(C(=O)c3ccco3)CC2)cc1 | -11
Cc1ccc2c(c1)-n1c(nc3cc(Cl)ccc3c1=O)C(CC(C)C)NC2=O (stereo not given) | -3
NC(=O)Nc1ccc(C(=O)OCC(=O)N2CCc3ccccc3C2)cc1 | -6
CC1CN(S(=O)(=O)c2ccc(C(=O)OCc3ccc(C#N)cc3)cc2)CC(C)O1 (stereo not given) | 0
CC(Sc1nnc(C2CC2)n1C1CC1)C(=O)N(C)Cc1cccc(F)c1 (stereo not given) | -1
O=C(Nc1ccccn1)c1ccc2c(=O)n3c(nc2c1)CCCCC3 | -5
CC(C)COc1ccc(C(=O)OCC(=O)NCc2cccs2)cc1 | -5
C[C@@H]1CN([C@H](C)CO)C(=O)Cc2cc(NS(=O)(=O)c3cn(C)cn3)ccc2O[C@H]1CN(C)S(=O)(=O)c1ccc(Cl)cc1 | 3
CN(CCCOc1ccccc1F)Cc1ccccc1 | 2

The last three records of the section before lead into the next.
SMILES | Mtb betalactam
CC(C)COc1ccc(C(=O)OCC(=O)NCc2cccs2)cc1 | -5
C[C@@H]1CN([C@H](C)CO)C(=O)Cc2cc(NS(=O)(=O)c3cn(C)cn3)ccc2O[C@H]1CN(C)S(=O)(=O)c1ccc(Cl)cc1 | 3
CN(CCCOc1ccccc1F)Cc1ccccc1 | 2
NCCCCC(N)c1cn([C@@H](CCC(=O)O)C(=O)N2CCNCC2)nn1 (stereo not given in full) | -9
CS(=O)(=O)Nc1ccccc1C(=O)OCC(=O)N1CCC(c2ccccc2)=N1 | -3
COC(=O)C1=C(c2ccc(F)cc2OCc2ccccc2)C[C@@H]2CC[C@H]1N2C(=O)NCC1CC1 | 1
O=C(Nc1cccc(Cl)c1)c1nc[nH]c1C(=O)N1CCN(c2ccccc2)CC1 | 62
Cc1nn(-c2ccccc2)c(C)c1C(=O)OC(C)C(=O)NC1CCCCC1 (stereo not given) | -9
C[C@H]1CN([C@@H](C)CO)C(=O)Cc2cc(NS(=O)(=O)c3cccs3)ccc2O[C@H]1CN(C)S(=O)(=O)c1cn(C)cn1 | 1
O=S(=O)(Nc1ccccc1)c1ccc(NS(=O)(=O)c2c(F)cccc2F)cc1 | 3
CCOc1ccc(NS(=O)(=O)c2ccc(C(=O)NCC(c3ccco3)N3CCCC3)cc2)cc1 (stereo not given) | 3
O=C(COC(=O)c1ccccc1O)NCc1ccc2c(c1)OCO2 | -3
Cc1cc(NC(=O)C(C)SCC(=O)NCc2ccc(F)cc2)no1 (stereo not given) | -4
CC1CCCN(C(=O)CN(c2ccccc2)S(=O)(=O)c2ccc(F)cc2)C1 (stereo not given) | -7
CCOC(=O)C1=C(C)N=c2s/c(=C/c3cccc([N+](=O)[O-])c3O)c(=O)n2C1c1ccc(OC)cc1OC (stereo not given) | 8
Cc1cc(C)c(N2C(=O)CCCC2=O)c(Cl)c1 | 5
O=C(CN1CCN(S(=O)(=O)c2ccc(Br)s2)CC1)N1CCCCC1 | -11
CC(C)(C)OC(=O)C[C@@H]1C/C=C\C[C@H](CC(=O)N(CCO)Cc2ccccc2)C(=O)NCCOC1=O | 1
CSCCC(NC(=O)c1cccc(S(=O)(=O)N2CCOCC2)c1)c1nc2ccccc2[nH]1 (stereo not given) | -6
O=C(COC(=O)c1ccccc1OCc1ccccc1Cl)NCC1CCCO1 (stereo not given) | 3
Cc1cc(C)n2nc(C(=O)OCC(=O)NNC(=O)c3ccccc3)nc2n1 | -5
CCc1ccc(N2CC(C(=O)NCC(C)(C)N3CCOCC3)CC2=O)cc1 (stereo not given) | -1
COC(=O)[C@]1(CC(C)C)N[C@H](c2ccc(-c3ccccc3)cc2)[C@@H]2C(=O)N(C)C(=O)[C@@H]21 | -2
CC(C)(Oc1ccc(F)cc1)C(=O)OCC(=O)c1ccc(S(C)(=O)=O)cc1 | 2
COc1ccc(Cl)cc1NC(=O)CN(C)C(=O)Cc1ccc(-c2ccccc2)cc1 | -10
O=C(COC(=O)CNC(=O)C1CCCCC1)Nc1ccc(Br)cc1Br | 0
CC1(c2ccc(Cl)cc2Cl)NC(=O)N(CC(=O)Nc2ccc3[nH]c(=O)[nH]c3c2)C1=O (stereo not given) | -1
O=C(CCNS(=O)(=O)c1ccc(Br)cc1)NCCCSc1ccccc1 | 10
COc1ccc(Cl)cc1NC(=O)CN(C)C(=O)Cn1cnnn1 | 3
CC1CCCC(NC(=O)COC(=O)c2n[nH]c3ccccc23)C1C (stereo not given) | 2
O=C(Nc1cc(C(F)(F)F)ccc1N1CCOCC1)C1CCCO1 (stereo not given) | -5
Cn1c(=O)c2c(ncn2CC(=O)OCC(=O)Nc2cc(Cl)ccc2C#N)n(C)c1=O | 2
COc1ccccc1-c1coc2c(CN3CCCCC3C)c(O)ccc2c1=O (stereo not given) | 4
NNC(=O)c1cc(S(=O)(=O)N2CCOCC2)c[nH]1 | -3
CCC(C)(C)C(=O)O | 2
Cc1cc(C)c(C)c(OCCN2CC(C)OC(C)C2)c1 (stereo not given) | -3
Cc1ccc(S(=O)(=O)N2CCN(CC(=O)Nc3ccccc3Cl)CC2)cc1 | -2
CCc1ccccc1NC(=O)CN(C)C(=O)c1cc(C2CC2)nn1-c1ccccc1 | 8
CNc1ccccc1 | -7
OC(COc1ccccc1)CN(Cc1ccccc1)CC(O)COc1ccccc1 (stereo not given) | 66
Cc1ccc(C(=O)NCCc2ccccc2)cc1S(=O)(=O)N1CCOCC1 | -9
N#CCCn1cc(CNC2CCC(O)CC2)c2ccccc21 (stereo not given) | -4
CC1CCCC(C)N1C(=O)COC(=O)c1ccc([N+](=O)[O-])o1 (stereo not given) | 99

Quoted at random: four compounds from above
SMILES | Mtb betalactam
Cc1cc(C)c(C)c(OCCN2CC(C)OC(C)C2)c1 (stereo not given) | -3
CC(C)(Oc1ccc(F)cc1)C(=O)OCC(=O)c1ccc(S(C)(=O)=O)cc1 | 2
CCc1ccccc1NC(=O)CN(C)C(=O)c1cc(C2CC2)nn1-c1ccccc1 | 8
Cn1c(=O)c2c(ncn2CC(=O)OCC(=O)Nc2cc(Cl)ccc2C#N)n(C)c1=O | 2

(listing goes on)
SMILES | Mtb betalactam
COc1ccc(-c2ccc3c(c2)S(=O)(=O)c2cccc(C(=O)NC4CC4)c2C3=O)cc1OC | 10
CC1CCCCC1NC(=O)CN1CCN(S(=O)(=O)c2ccc(Br)s2)CC1 (stereo not given) | 5
COc1ccc(-n2ccnc2SCC(=O)NC2CCCC2)cc1 | -5
N=c1ccn2c(n1)O[C@H]1[C@@H](CO)[C@H](O)O[C@H]12 | -1
CCC(CO)Oc1cc(NCc2cccc(Cl)c2)c2ncn(C(C)C)c2c1 (stereo not given) | 8
C=CC[C@@H](CC(=O)NCCO)C(=O)N[C@@H](C)COC(=O)[C@@H](CC=C)Cc1ccc(F)cc1 | -2
Cc1cccc(C)c1NC(=O)COC(=O)C1C2CC3OC(=O)C1C3C2 (stereo not given) | 4
CCCCn1c(N)c(N(CC)C(=O)c2c(C)noc2C)c(=O)[nH]c1=O | -14
O=C(Nc1cccc(S(=O)(=O)NC2=NCCC2)c1)c1ccc(F)cc1F | -2
COc1cccc(C(=O)Nc2nnc(SCC(=O)NC3CC3)s2)c1 | 6
CC(Sc1nnc(C2CC2)n1C1CC1)C(=O)Nc1ccccc1C#N (stereo not given) | -1
COc1cc(F)cc(-c2ccc3c(c2)c(-c2cccs2)c(-c2cc(OC)cc(OC)c2)n3C)c1 | 2
O=C1N[C@H](Cc2c[nH]c3ccccc23)COC(=O)[C@H](Cc2ccc(F)cc2)C/C=C\C[C@H]1CC(=O)N(CCO)Cc1ccccc1 | 26
COc1ccc(NC(=O)COC(=O)C2C3CC4OC(=O)C2C4C3)cc1 (stereo not given) | -3
COc1cccc(-c2sc3ccc(OC)cc3c2C#CC(C)(C)O)c1 | 0

Two neighbouring records from above, quoted:
SMILES | Mtb betalactam
COc1ccc(-c2ccc3c(c2)S(=O)(=O)c2cccc(C(=O)NC4CC4)c2C3=O)cc1OC | 10
CC1CCCCC1NC(=O)CN1CCN(S(=O)(=O)c2ccc(Br)s2)CC1 (stereo not given) | 5

Ordered by length of the SMILES (low to high): some entries from above.
SMILES | Mtb betalactam
CCN(C(=O)COC(=O)c1cn(C)c2ccccc12)c1ccc(F)cc1 | 4
CCc1sc(C(=O)N2CCN(CC(=O)Nc3cccc(F)c3)CC2)cc1C | -6
CC(C)(Oc1ccc(F)cc1)C(=O)OCC(=O)c1ccc(S(C)(=O)=O)cc1 | 2

These rows are one share of the data; count on the stated rates, not on these rows.
